High-throughput results: PubChem, National Center for Advancing Translational Sciences (NCATS)
N370S GC mod = N370S glucocerebrosidase modulation, Gaucher chaperone candidate; N370S GC spleen homogenate, 4MU-glucoside fluorescence; actives 0.092% (n = 330,000); Potency, µM (series often up to 59.4 µM), inactives show top-dose activity change, negative = inhibition, usual class: inhibitors;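 also: 0% = full enzyme activity and -100% = no enzyme basal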
FEN1 inh = inhibitors of human flap endonuclease 1 | actives 0.35% (n = 390,000) | Recombinant FEN1 flap cleavage, fluorescence, 15 min | Potency, µM (titrated, usually from 114 µM), without a hit: at the top dose activity change, negative = inhibition, hits mostly inhibitors | P39748; also: nearly all actives have a fitted effect of over 65% in size
Target sequence (P39748 whole entry, looked up): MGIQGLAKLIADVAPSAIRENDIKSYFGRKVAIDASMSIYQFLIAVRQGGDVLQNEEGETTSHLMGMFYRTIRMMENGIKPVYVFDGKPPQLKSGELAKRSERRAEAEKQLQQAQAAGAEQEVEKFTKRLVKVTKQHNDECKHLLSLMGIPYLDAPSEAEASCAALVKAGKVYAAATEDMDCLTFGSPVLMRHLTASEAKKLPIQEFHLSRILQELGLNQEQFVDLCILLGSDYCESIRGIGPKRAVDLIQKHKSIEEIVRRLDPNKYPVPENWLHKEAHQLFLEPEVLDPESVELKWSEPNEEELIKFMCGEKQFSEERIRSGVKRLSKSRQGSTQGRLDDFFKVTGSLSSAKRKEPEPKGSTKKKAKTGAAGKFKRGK
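In this screen, 50 nM flap DNA substrate was added to 10 nM FEN1 pretreated with compound for 15 min at room temperature; cleavage was followed with reads at 0 and 15 min, and Hill fitting gave concentration–response parameters.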
An asterisk follows results filed as active; ? = inconclusive; / = no result given; [ ] = another dose, or the depositor's remark. Calls follow the shape of the dose curve; as a rule, active = well fitted curve in the direction sought with a large enough effect; inconclusive = small, poorly fitted or top-dose-only effect, or another doubt; inactive = no such curve, though single readings can be large; an effect the other way counts as inactive or inconclusive. Unless noted, % is scaled to controls: 0 for no effect and ±100 for the full control effect; potency is read from the fitted curve at half-maximal effect. Not all compounds are listed, and most or all hits are left out here.

N370S GC mod	FEN1 inh	smiles
6.8%	8.1%	CCn1c(O)c(C(C#N)=C2N=c3ccccc3=N2)c2ccccc21
4.4%	-1.7%	O=C(/C=C/c1ccc2c(c1)OCO2)NCCSCc1ccc(Cl)cc1
5.0%	-0.8%	O=C(Nc1ccncc1)Nc1ccccn1
16.6%	-7.7%	Cc1ccc(-c2nnc3ccc(SCC(=O)N4CCCc5ccccc54)nn23)cc1
-1.5%	12.9%	COc1cccc(/C(O)=C2/C(=O)C(=O)N(CCN(C)C)C2c2ccccn2)c1 (stereo not given)
-22.6%	?	CN(C)CCCN(C(=O)c1ccc(S(=O)(=O)N2CCc3ccccc3C2)cc1)c1nc2ccc(F)cc2s1
-11.2%	-8.3%	COc1ccc(-c2cc(C3CCN(Cc4cccc(C(F)(F)F)c4)CC3)[nH]n2)cc1
/	3.8%	CCc1c(C2(O)CCCCC2)[nH]c2ncccc12
-5.9%	5.9%	CCOc1ccccc1N1CCN(C(=O)c2ccc3[nH]c(C)c(C)c3c2)CC1
/	9.2%	Cc1nc(N2CCOCC2)c2c(C(=O)N3CCN(c4cc(Cl)ccc4C)CC3)c(C)oc2n1
-0.1%	-9.7%	CC(=O)c1ccc(OCCCC(=O)NC(C)c2ccc(S(N)(=O)=O)cc2)cc1 (stereo not given)
/	-13.8%	CC1CCCCC1NC(=O)COC(=O)c1ccc2c(c1)OCCO2 (stereo not given)
0.2%	-5.0%	CCn1c(=O)c(C(=O)NCCNCCO)c(O)c2ccccc21
-17.3%	16.2%	Cn1nc(C(=O)NC2CCCCC2)c2c1-c1ccccc1S(=O)(=O)C2
-1.4%	-5.0%	C=CCn1nc2ccccc2c1OC
-10.7%	7.9%	CCOC(=O)C1CCCN(C(=O)c2sc3nc(-c4ccc(OC)cc4)cn3c2C)C1 (stereo not given)
9.1%	-5.5%	CC(=O)c1ccc(N2CCN(C(=O)C3(S(=O)(=O)c4ccc(Cl)cc4)CC3)CC2)cc1
-5.8%	9.6%	O=P(CCN1CCCCC1)(c1ccccc1)c1ccccc1
0.5%	-1.0%	C=CCn1cnc2c(nnn2-c2ccc(OC)c(OC)c2)c1=O
-0.5%	8.6%	CCCCn1c(N)c(N(CCOC)C(=O)c2cccc(N3C(=O)c4ccccc4C3=O)c2)c(=O)[nH]c1=O
-0.2%	-4.0%	O=C(Nc1ccc(Cl)cc1)c1cc2nc(-c3ccco3)cc(C(F)(F)F)n2n1
3.6%	5.8%	CCCCNCCCOc1cccc(Cl)c1
-13.5%	-10.8%	Cc1cc(C)c(NC(=O)CSc2nnc(-c3ccncc3)n2Cc2ccco2)c(Cl)c1
1.9%	8.3%	O=C(c1sc2ccccc2c1Cl)N1CCN(c2ncccn2)CC1
-15.1%	-29.9%	COC(=O)[C@]1(CC(C)C)N[C@H](c2ccc(-c3ccc(F)cc3)c(OC)c2)[C@@H]2C(=O)N(C)C(=O)[C@@H]21
-9.1%	-5.6%	O=C(CCN1C(=O)c2cccc3cccc(c23)C1=O)Nc1ccccc1
16.7%	-7.2%	CC1CCCCC1NC(=O)COC(=O)c1ccc(S(=O)(=O)NCc2ccco2)cc1 (stereo not given)
13.7%	-0.6%	CCOCCn1c(COc2ccc(C)cc2)nc2ccccc21
3.8%	-1.2%	CS(=O)(=O)N1CCN(C2Cc3ccccc3C2)CC1
-1.2%	-8.6%	CCOC(=O)/C(=C\c1ccc(OC(F)F)cc1)C1=Nn2c(nnc2-c2ccc(Cl)cc2)SC1
1.3%	-3.4%	COc1ccc(-n2c(SCC#N)nnc2-c2ccc(NS(=O)(=O)c3ccc(C)cc3)cc2)cc1
-16.7%	/	CN1CCN(c2ccc([N+](=O)[O-])cc2/C=N/NC(=O)c2cccc([N+](=O)[O-])c2)CC1
-23.4%	1.0%	Nc1ccc(-n2ccnc2)cc1
-11.7%	-6.1%	Cc1cc(S(=O)(=O)N(C)CCc2ccccc2)ccc1-n1cnnn1
-8.4%	16.2%	CCCCc1nc2cc(C(=O)N3CCCCC3C(=O)OC)ccc2o1 (stereo not given)
2.4%	-1.0%	CCOC(=O)CSc1nnc(NC(=O)c2ccco2)s1
13.0%	5.3%	O=C(Nc1cccc(Cl)c1N1CCCC1)c1cc2ccccc2o1
-0.4%	-5.6%	COc1ccc(C(=O)Nc2cc(C)c(NC(=O)c3ccccn3)cn2)cc1
5.1%	-5.3%	CC(C)Oc1ccc(Cc2cnc(N)nc2N)cc1
-5.8%	-4.5%	O=C(NCCCN1CCN(c2ccccc2F)CC1)C1CCC(=O)N1C1CCCCC1 (stereo not given)
1.6%	-2.7%	N#Cc1ccc(C(=O)Nc2cc(S(=O)(=O)Nc3ccc(Cl)cc3)ccc2N2CCCCC2)cc1
?	-21.0%	COc1cc(NC2c3ccccc3C(=O)N2Cc2ccc3c(c2)OCO3)cc(OC)c1 (stereo not given)
-8.3%	-0.7%	O=C(NCCC1CCCCN1S(=O)(=O)c1ccccc1)C(=O)NCCN1CCOCC1 (stereo not given)
?	10.3%	Cc1ccc(/C=C2\SC(=S)N(CCC(=O)NCCCN3CCOCC3)C2=O)cc1
/	-10.1%	O=C(NCC(c1ccc2c(c1)OCO2)N1CCN(c2ccccc2)CC1)C(=O)Nc1ccccc1 (stereo not given)
5.1%	19.6%	O=C(NNc1cccc(Cl)n1)Nc1ccc(F)cc1
6.1%	6.3%	O=C1CC(c2ccccc2)Cc2nc3ncnn3cc21 (stereo not given)
1.6%	4.8%	O=C(CCS(=O)(=O)c1ccc(Br)cc1)N1CCCCCC1
7.9%	-14.6%	CC1=CC(=C(C#N)C#N)c2ccccc2N1C
-8.6%	3.7%	O=C(CN1C(=O)COc2ccccc21)Nc1ccc2c(c1)OCCO2

Other structures
N370S GC mod	FEN1 inh	smiles
/	16.3%	Cc1ccc(-c2nc3nc(C)cc(N4CCN(c5cc(Cl)ccc5C)CC4)n3n2)cc1
/	-2.9%	CCOC(=O)CC(NC(=O)Cn1nnc(-c2ccc(C(F)(F)F)cc2)n1)c1ccc(C)cc1 (stereo not given)
/	-11.5%	Cc1ccc(NC(=O)CN2C(=O)CSc3ccc(S(=O)(=O)N(C)C)cc32)c(C)c1
-1.9%	6.2%	COc1ccc(NC(=O)CCN2C(=O)c3ccccc3C2=O)c(OC)c1
6.4%	-6.3%	CC1CCCN(C(=O)COC(=O)c2n[nH]c3ccccc23)C1 (stereo not given)
-0.7%	/	COC(=O)N1[C@H]2CC[C@@]3(C)CC(=O)C[C@]1(C)C3c1ccccc12
-13.3%	-0.9%	Cc1ccccc1NS(=O)(=O)c1ccc(C(=O)N2CCN(S(=O)(=O)c3ccccc3)CC2)cc1
6.4%	0.4%	Cc1nc(N2CCC(C)CC2)c2c(C)c(C(=O)O)sc2n1
5.7%	-2.6%	COc1ccc(OC)c(S(=O)(=O)Nc2cc(C(=O)O)ccc2N2CC3CC(C2)c2cccc(=O)n2C3)c1 (stereo not given)
-8.2%	9.4%	CCn1nc(C)c(CNC(=O)c2cc(COc3ccc(F)cc3Cl)on2)c1C
3.6%	-16.1%	O=C(NC(=S)Nc1ccc(N2CCOCC2)cc1)c1cccc(Cl)c1
0.5%	-16.1%	O=C(COC(=O)CCSc1ccc(Cl)cc1)NCc1ccccc1Cl
2.7%	-9.2%	O=C(NC1CCCCC1)c1ccc(S(=O)(=O)c2ccccc2)cc1
18.8%	6.5%	Cc1noc(C)c1COC(=O)c1cc2c3ccccc3n(C)c2s1
-11.0%	-13.6%	O=C(COC(=O)c1ccccc1Br)Nc1cc(S(=O)(=O)N2CCOCC2)ccc1N1CCCC1
-1.2%	-16.0%	Fc1cc(F)c(C2SCCN2C(=S)Nc2cccc(C(F)(F)F)c2)c(F)c1 (stereo not given)
-6.8%	0.2%	Cc1ccc(-n2nc(C)c(NC(=O)CCl)c2C)cc1
-2.2%	-3.3%	CS(=O)(=O)Nc1ccc(S(=O)(=O)N2CCCCCC2)cc1
/	19.8%	COc1ccc(Cn2ccn(Cc3cccc(C)c3)c(=O)c2=O)cc1
15.3%	8.7%	Cc1cccc(OCCCn2c(=O)oc3ccccc32)c1
-3.7%	11.5%	CC(C)(C)NC(=O)COC(=O)CCC(=O)c1cccs1
/	-2.9%	Cc1ccc(CSC2=Nc3ccccc3C3=NC(CC(=O)NC4CCCCC4)C(=O)N23)c(C)c1 (stereo not given)
-1.0%	16.3%	CC(Sc1nc2ccccc2s1)C(=O)c1c(N)n(C)c(=O)n(C)c1=O (stereo not given)
27.3%	-1.1%	COC(=O)C1=CN(C2CC2)C=C(C(=O)OC)C1c1ccc(C(=O)OC)cc1
-4.2%	-19.0%	O=C(CCNS(=O)(=O)c1ccc(Br)s1)Nc1ccc(Cl)cc1
-8.6%	-5.4%	COc1cc(OC)c(S(=O)(=O)N2CCCCC2)cc1S(=O)(=O)N1CCCCC1
0.8%	1.0%	Cc1ccc2c(CC(=O)NCC(=O)Nc3c(C)cccc3C)coc2c1
-13.0%	-9.1%	O=C(O)CCn1cnc2ccccc2c1=O
-17.3%	-11.9%	CCOP(=O)(OCC)c1nc(-c2ccc(OC)cc2)oc1N1CCOCC1
/	8.0%	COC(=O)c1ccc(OCC2c3cc(OC)c(OC)cc3CCN2C(=O)c2ccc(F)cc2)cc1 (stereo not given)
1.6%	-12.2%	Cc1nc(SCC(=O)Nc2c(C)nn(C)c2C)c2cnn(-c3ccccc3)c2n1
21.6%	-13.1%	O=S(=O)(c1cc(Cl)cc(Cl)c1)N1CCCC1c1nc2ccccc2s1 (stereo not given)
16.7%	-4.2%	Cc1snc(SCC(=O)c2ccc(F)cc2)c1C#N
-2.8%	-2.2%	Cc1cccc(C(=O)Nc2ccc(N3CCN(C(=O)c4ccco4)CC3)cc2)c1
22.2%	-0.8%	CCc1cc2c(=O)c(Oc3ccccc3)c(C)oc2cc1O
/	6.3%	Cc1nc2cc(N3CCCCC3)c(NC(=O)c3ccncc3)cc2c(=O)n1Cc1ccccc1
21.1%	-20.0%	CCN(CC)c1ccc(/C=N/NC(=S)NCc2ccco2)cc1
-0.2%	-6.7%	CCCN1CCC(NC(=O)Nc2cc(Cl)ccc2OC)CC1
6.4%	2.3%	O=C(NCc1ccccn1)C1CCCCC1
9.9%	9.0%	O=C(COC(=O)/C=C/c1ccccc1F)Nc1nnc(-c2ccccc2)o1
/	-0.9%	CCOc1ccc(C(=O)N(CC)CC(=O)Nc2ccc3c(c2)OCCO3)cc1
-2.9%	-9.8%	COc1cc(CNCc2ccccc2)cc(Cl)c1OC
5.2%	3.9%	Cc1sc2nc(C)n(/N=C/c3ccccc3)c(=O)c2c1C
-0.8%	-1.0%	O=C(NCc1cccnc1)c1cc(S(=O)(=O)N2CCCC2)c(Cl)cc1Cl
5.4%	17.0%	CC1CCCC(NC(=O)c2cc(S(=O)(=O)N3CCOCC3)ccc2F)C1C (stereo not given)
-1.7%	-13.8%	COc1ccc(Cc2nnc(NC(=O)C3CC(=O)N(CCc4ccc(F)cc4)C3)s2)cc1OC (stereo not given)
-6.3%	37.8%[activator]	CCN(CC)C(=O)c1ccc(S(=O)(=O)c2ccccc2)cc1
5.3%	-2.3%	N#Cc1cc2c(nc1SC1CC(=O)N(c3ccccc3)C1=O)CCC2 (stereo not given)
-7.2%	-13.5%	O=C(NCCC(=O)N1CCN(S(=O)(=O)c2ccc(Cl)cc2)CC1)Nc1ccccc1
-4.1%	-17.2%	CC(c1nnc(SCC(=O)Nc2sccc2C#N)n1-c1ccc(Cl)cc1)N(C)C (stereo not given)

(list continues)
N370S GC mod	FEN1 inh	smiles
-1.4%	5.8%	O=C(NCCCn1ccnc1)c1cc(C(=O)C2CCCCC2)c[nH]1
1.2%	4.0%	CN(CCO)C1=NS(=O)(=O)c2cc([N+](=O)[O-])ccc21
1.3%	2.1%	COCc1cc(C)nc(Oc2ccccc2)c1C#N
28.9%	-18.9%	Cc1ccc(C(=O)N2CCCC(c3ccc(Cl)cc3)=N2)cc1
?	-11.1%	C=CCn1c(-c2cccs2)nc2nc3ccccc3nc21
-5.1%	/	Cc1ccc(C2=[N+]([O-])C3(CCCCC/C3=N\NC(N)=S)N(O)C2(C)C)o1 (stereo not given)

For convenience, some entries already given.
N370S GC mod	FEN1 inh	smiles
/	-0.9%	CCOc1ccc(C(=O)N(CC)CC(=O)Nc2ccc3c(c2)OCCO3)cc1
-2.9%	-9.8%	COc1cc(CNCc2ccccc2)cc(Cl)c1OC
5.2%	3.9%	Cc1sc2nc(C)n(/N=C/c3ccccc3)c(=O)c2c1C
-0.8%	-1.0%	O=C(NCc1cccnc1)c1cc(S(=O)(=O)N2CCCC2)c(Cl)cc1Cl
5.4%	17.0%	CC1CCCC(NC(=O)c2cc(S(=O)(=O)N3CCOCC3)ccc2F)C1C (stereo not given)
-1.7%	-13.8%	COc1ccc(Cc2nnc(NC(=O)C3CC(=O)N(CCc4ccc(F)cc4)C3)s2)cc1OC (stereo not given)
-6.3%	37.8%[activator]	CCN(CC)C(=O)c1ccc(S(=O)(=O)c2ccccc2)cc1
5.3%	-2.3%	N#Cc1cc2c(nc1SC1CC(=O)N(c3ccccc3)C1=O)CCC2 (stereo not given)
-7.2%	-13.5%	O=C(NCCC(=O)N1CCN(S(=O)(=O)c2ccc(Cl)cc2)CC1)Nc1ccccc1
-4.1%	-17.2%	CC(c1nnc(SCC(=O)Nc2sccc2C#N)n1-c1ccc(Cl)cc1)N(C)C (stereo not given)
-1.4%	5.8%	O=C(NCCCn1ccnc1)c1cc(C(=O)C2CCCCC2)c[nH]1
1.2%	4.0%	CN(CCO)C1=NS(=O)(=O)c2cc([N+](=O)[O-])ccc21
1.3%	2.1%	COCc1cc(C)nc(Oc2ccccc2)c1C#N
